# Screens: PubChem BioAssay, National Center for Advancing Translational Sciences (NCATS)
# VACV Venus inh: inhibitors of vaccinia virus (Venus reporter) | actives 0.46% (n = 330,000) | Potency, µM (series often up to 36.5 µM), for inactives: at the top dose activity change, negative = inhibition, hits mostly inhibitors | Vaccinia virus Venus reporter expression, fluorescence; active means well fitted inhibition curve with a large enough effect; inconclusive means small, poorly fitted or top-dose-only effect; inactive means no such curve, though single readings can be large or run the other way; tested in A549 cells; further: nearly all actives have a fitted effect of over 30% in size; inactives centre near -10
# Vaccinia mCherry: inhibitors of vaccinia virus infection (mCherry reporter signal) | Vaccinia virus mCherry reporter infection, fluorescence; about a quarter of the inactives have no number | Potency, µM (top dose mostly 36.5 µM), without a hit: top-dose activity change, negative = inhibition, hits mostly inhibitors | actives 0.63% (n = 310,000); active = well fitted inhibition curve with a large enough effect; inconclusive = small, poorly fitted or top-dose-only effect; inactive = no such curve, though single readings can be large or run the other way; tested in A549 cells; further: nearly all actives have a fitted effect of over 35% in size; inactives centre near -10
# Numbers without * were called inactive; i = inactive; ? = inconclusive; nt = no result given. On the % scale 0 is the no-effect control and ±100 the full control effect; potency means the concentration at half of the fitted maximal effect. Not a hit list (roughly 0.82% active in at least one column).
SMILES,VACV Venus inh,Vaccinia mCherry
Cc1nc2c(cc1N)nc(C)n2Cc1ccccc1,-8%,-10%
COc1ccc(NC(=O)CSc2ccc(-c3ccco3)nn2)cc1OC,-18%,-28%
CN(C)[C@@H]1CCC[C@@H]1OC(=O)C(c1ccccc1)c1ccccc1,-19%,-19%
CCn1cc(C(=O)NCC(=O)OC)c2cc(OC)c(OC)cc2c1=O,-3%,-14%
CCn1cc(CNCc2c(C(=O)N3CCCCC3)nc3c(C)cccn23)cn1,-8%,i
CCOc1ccc(S(=O)(=O)N2CCN(Cc3nc4ccc(C)cc4o3)CC2)cc1,-6%,-22%
COCCOC(=O)c1c(C)oc2ccc(O)c(CN3CCC(C)CC3)c12,-13%,-18%
CN(C)CCN(Cc1ccccc1)C(c1ccnc2ccccc12)c1nnnn1-c1ccc2c(c1)OCCO2 (centres undefined),-15%,-11%
O=c1cc(CN2CCCCC2)nc(C2CC2)[nH]1,-15%,-12%
O=C(Cc1cccs1)Nc1ccccc1F,-3%,-11%
CCOC(=O)c1nc(C(=O)NCc2ccc(C)cc2)nc2ccccc12,-10%,i
O=C1c2cccnc2C(=O)N1c1cccc(-c2nc3ccccc3o2)c1,-4%,-16%
Cc1ccc(C(=O)CC2(O)C(=O)N(Cc3ccccc3F)c3ccccc32)cc1 (centres undefined),-12%,-14%
COc1ccc(NC(=O)C2(C)Cc3c(-c4cccc(C(F)(F)F)c4)ccnc3O2)cn1 (centres undefined),-14%,i
COc1ccc(CCNC(=O)[C@H](CC(C)C)NC(=O)N2CCn3c2nc2ccccc23)cc1OC,?,-27%
O=C(CCNC(=O)c1ccc(Br)cc1)NCc1ccccc1F,-5%,-6%
CCN(Cc1ccc(OC)c(F)c1)C(=O)c1oc2ccccc2c1COC,2%,-13%
Fc1ccc(C2NCCn3cccc32)cc1 (centres undefined),-6%,nt
Cc1c(Oc2cc(NN3CCCCC3)c([N+](=O)[O-])cc2[N+](=O)[O-])cccc1[N+](=O)[O-],-14%,-14%
CC(=O)c1ccc(S(=O)(=O)Nc2ccc(-c3ccc(N4CCCCCC4)nn3)cc2)cc1,-4%,-7%
Cc1nnc(CN(C)C(=O)c2cc(COc3ccc(F)cc3Cl)on2)o1,-3%,-6%
Cc1cc(NC(=O)CCC(=O)N(CC(=O)NCC2CCCO2)c2ccc(C(C)C)cc2)no1 (centres undefined),0%,-17%
CC1(OC(=O)C2CCCC2)C(=O)C=C2C=C(c3ccsc3)N(c3ccccc3)C=C2C1=O (centres undefined),-3%,?
O=C(CS(=O)(=O)c1ccccc1)c1ccc2c(c1)OCCO2,-12%,-7%

# A second format for some results above.
molecule | VACV Venus inh | Vaccinia mCherry
COc1ccc(CCNC(=O)[C@H](CC(C)C)NC(=O)N2CCn3c2nc2ccccc23)cc1OC | ? | -27%
O=C(CCNC(=O)c1ccc(Br)cc1)NCc1ccccc1F | -5% | -6%

# The list goes on:
SMILES,VACV Venus inh,Vaccinia mCherry
CCc1noc(C)c1C(=O)NCCN1C(=O)S/C(=C\c2ccc(OC)cc2)C1=O,-25%,-15%
Cc1cccc(NS(=O)(=O)c2nnc(NC(=O)c3ccccc3F)s2)c1,-17%,i
CN1C[C@@H]2C[C@@H](C3=Cc4cc(Cl)ccc4OC3)N3CCC[C@@]23C1=O,-16%,-19%
Cc1cccc(NC(=S)N(CCCN2CCCC2)Cc2cccn2Cc2ccc(Cl)cc2)c1,-24%,?
O=C(CSc1nc2cc(Cl)ccc2o1)N1CCOCC1,?,nt
COc1ccc(/C=C2\SC(=S)N(C(Cc3ccccc3)C(=O)O)C2=O)cc1 (centres undefined),6%,1%
O=C(COc1ccc(Cl)cc1)Nc1ccc2[nH]ncc2c1,-24%,-7%
CN(C)CCN(C(=O)c1ccc2c(c1)CCCC2)c1nc2cc3c(cc2s1)OCCO3,-28%,-7%
CCOCCOC(=O)C1=C(C)N(C)C(=O)NC1c1cc(Cl)c(O)c(OC)c1 (centres undefined),-14%,-15%
N#CCC(=O)N/N=C/c1cn(Cc2ccc(Cl)c(Cl)c2)c2ccccc12,?,-19%
Cc1cc(C)c(S(=O)(=O)NCC(=O)NCc2ccco2)c(C)c1,1%,-4%
CCSc1nnc(NC(NC(=O)c2ccco2)(C(F)(F)F)C(F)(F)F)s1,-13%,nt
O=c1oc2c3c4c(cc2c(C(F)(F)F)c1CCN1CCOCC1)CCCN4CCC3,11%,-4%
Cc1ccnc2c([N+](=O)[O-])cccc12,-11%,i
COc1ccc(CN(C)C(=O)c2ccc(OCC(=O)Nc3cccc(C(F)(F)F)c3)c(OC)c2)c(OC)c1,?,-3%
O=C1OCC2=C1C(c1ccc(Cl)cc1)CC(=O)N2c1ccc(F)cc1 (centres undefined),0%,-19%
Cc1cccc(C)c1NC(=O)NCCSc1snnc1C,-11%,i
CC(=O)NCC(=O)OC(C(=O)c1ccccc1)c1ccc(Cl)cc1 (centres undefined),2%,-2%
COc1cccc2cc(C(=O)NCc3ccc(Cl)cc3)c(=O)oc12,-4%,i
CC1(C)CC(=O)c2cc(C(=O)NCc3ccco3)c(=O)n(-c3ccccc3)c2C1,1%,nt
Clc1cccc(-c2noc3ncnc(Nc4ccc5c(c4)OCO5)c23)c1,-10%,-13%
COc1ccc(NC(=S)N/C(=N/CS(=O)(=O)c2ccccc2)c2ccccc2)cc1,-9%,-2%
Cc1ccc(NC(=O)CSc2nc3ccccc3n2CC(=O)N2CCC(C)CC2)cc1C,-19%,-14%
Cc1nc2ccccc2nc1OCc1ccccc1,-7%,1%
CC1(C)CC(=O)C/C(=N\NC(=O)C2CC2c2ccccc2)C1 (centres undefined),-28%,-25%
N=C(N)Sc1nc(N2CCCCC2)nc(N2CCCCC2)n1,10%,-20%
CCN(CC)S(=O)(=O)c1ccc(N2C(=O)CC2(/C=C/c2ccccc2)C(=O)NC2CCCC2)cc1 (centres undefined),-8%,i
Cc1cccc(CCN2C(N(C)C)=NC[C@@H]2CC(C)C)c1,-14%,-16%
Nc1nonc1OCCc1ccccc1,-6%,nt
O=C(NC1CC1)C1=C[C@@H](c2ccccc2)C[C@@H](OCc2ccc(CO)cc2)O1,-11%,-5%
CCCCCn1c(CCNC(=O)c2ccc(F)cc2)nc2ccccc21,-4%,-10%
COC(=O)c1cc(S(=O)(=O)N2CCN(c3ccc(C)cc3C)CC2)cn1C,-1%,-1%
c1ccc(CNCCC(Cc2ccccc2)c2ccco2)cc1 (centres undefined),-25%,?
Cc1nc2nc(-c3ccc(Cl)cc3)[nH]n2c(=O)c1Cc1ccccc1,-5%,nt
CCOC(=O)c1ccc(NC(=O)c2cc(=O)c3cc(CC)ccc3o2)cc1,-4%,-9%
COCCCNC(=O)Cn1c(=O)n(CCCC(=O)NCc2ccc(C)cc2)c(=O)c2ccccc21,-1%,-2%
Cn1c(=O)c(C(=O)COc2ccc(F)cc2Cl)c(N)n(Cc2ccccc2)c1=O,-3%,-11%
NC(=O)c1nsc(C(=O)N(Cc2cccnc2)C(C(=O)NC2CCCCC2)c2ccc(F)cc2)c1N (centres undefined),1%,-14%
CC(C)Cc1nn2c(=O)cc(COC(=O)c3ccc4c(c3)OCO4)nc2s1,0%,-6%
Cc1ccc(N(C(=O)CNC(=O)c2ccco2)C(C(=O)NC2CCCC2)c2ccncc2)cc1 (centres undefined),0%,i
CCOc1cc(C2C(C(=O)c3ccc(C)o3)=C(O)C(=O)N2CCc2ccccc2)ccc1O (centres undefined),-9%,-6%
COc1ccc(CC(=O)NCc2nc3cccnc3n2Cc2ccc(C)cc2)cc1OC,-6%,-12%
CC1(C)CC(NC(=O)c2ccc(Cl)c(S(=O)(=O)N(Cc3ccccc3)c3ccccc3)c2)CC(C)(C)N1,?,-17%
CN(C(=O)COC(=O)c1ccccc1SCC(=O)N1CCCC1)c1ccccc1,-12%,-2%
COc1ccccc1Nc1nn2c(=O)c3ccc(C(=O)N4CCC(C)CC4)cc3nc2s1,-11%,-25%
Cc1cc(C(=O)NC2CC2)c2ccccc2n1,6%,6%
CC(=O)NN1C(=O)c2ccccc2NC1c1ccccc1O (centres undefined),-7%,i
CC(C)c1ccc(NC(=O)c2cn(C3CCCCC3)c(=O)c3c2c2ccccc2n3C)cc1,-17%,-11%
Cc1ccc(Nc2ncnc3c2nnn3Cc2ccccc2)cc1,-21%,-26%
O=C(CCNC(=O)c1ccccc1Cl)Nc1cc(S(=O)(=O)N2CCOCC2)ccc1N1CCOCC1,2%,-8%
NC(=O)c1ccccc1NS(=O)(=O)Cc1ccc(Cl)cc1,2%,-11%
CCOC1CCc2c(C)nc(N)nc2S1 (centres undefined),-8%,i
CCc1c(C)nc2ncnn2c1Nc1ccc(C(C)=O)cc1,-11%,?
Cc1ccccc1N1CCN(S(=O)(=O)c2nnc(NC(=O)c3ccc(Cl)cc3)s2)CC1,?,?
CC1CCc2c(c3ccccc3n2C(=O)CCl)C1 (centres undefined),-26%,-28%
COc1ccc(C2NC(=O)CCC2[N+](=O)[O-])cc1 (centres undefined),-10%,-12%
NS(=O)(=O)c1ccc(CNC(=O)CCC2CCCCC2)cc1,1%,-18%
COCCC(=O)N1CCC(n2nccc2NC(=O)CCc2ccccc2)CC1,7%,-16%
CCC(C)C(NC(=O)c1ccccc1NC(=O)c1ccco1)C(=O)NC1CCCCC1 (centres undefined),-18%,nt
Cc1cccc(Nc2nnc(SCC(=O)NC3CCCc4ccccc43)s2)c1 (centres undefined),-24%,?

# Following part:
SMILES,VACV Venus inh,Vaccinia mCherry
O=C(Nc1cccc(Oc2c(F)c(F)c(F)c(F)c2F)c1)N1C[C@@H]2C[C@@H](C1)c1cccc(=O)n1C2,?,nt
CC(=O)Nc1sc2c(c1C(N)=O)CCC2,?,-25%
C=CCn1c(Cc2ccc(OC)cc2)nnc1SCc1nc2ccccc2c(=O)[nH]1,-6%,-13%
CCOCCCNC(=O)C(c1ccc(Cl)cc1)N(Cc1cccs1)C(=O)c1ccc(NC(C)=O)cc1 (centres undefined),1%,-5%
COc1ccccc1Nc1c([N+](=O)[O-])cncc1[N+](=O)[O-],-13%,?
CC1C(=O)Nc2ccccc2N1C(=O)c1ccc(F)cc1 (centres undefined),-17%,-15%
CN1CCN(c2nc(-c3ccc(N(C)C)cc3)nc3ccccc23)CC1,13%,13%
O=[N+]([O-])c1ccc(N2CCN(c3nc(-c4ccc(Cl)cc4)cs3)CC2)cc1,-9%,-4%
COc1ccc(SC[C@H](Cc2ccccc2)N2CCN(C)CCC2=O)cc1,-7%,i
CCOc1ccc(OCCSc2nc3ccccc3[nH]2)cc1,-28%,-6%
COc1ccc(OC)c(S(=O)(=O)n2nc(-c3ccccc3)cc2N)c1,-18%,i
CCCCN(C)C(=S)Nc1ccc2nc3n(c(=O)c2c1)CCCCC3,-18%,-12%
CCOc1cc(-c2cc(C(=O)O)c3c(-c4ccccc4)[nH]nc3n2)ccc1O,-5%,1%
COc1ccccc1NC(=O)NC1CCS(=O)(=O)C1 (centres undefined),1%,3%
O=C(C1=C[C@@H](C2CCCCC2)C[C@@H](OCCCCO)O1)N1CCN(Cc2ccccc2)CC1,-19%,?
COc1ccc(CCNC(=O)C2CCC(=O)N(C3CC3)C2)c(OC)c1 (centres undefined),-3%,i
Cc1cccc(C)c1NC(=O)Cn1c(=O)cc(C)c2c(C)nn(-c3cccc(Cl)c3C)c21,6%,-6%
Cn1c(=O)c2c(ncn2CC(=O)N/N=C/c2ccc(Br)s2)n(C)c1=O,-7%,-12%
CCOC(=O)C(C)Oc1cccc2c(=O)n(CC(=O)Nc3ccc(OC)cc3)ccc12 (centres undefined),-10%,-14%
COc1cc2c(cc1OC)CN(C(=O)CN(C)S(=O)(=O)c1ccc(NC(C)=O)cc1)CC2,-18%,-7%
Cc1cc2nc3c(=O)n(CCc4ccccc4)c(=O)[nH]c3nc2cc1N,-10%,i
CCOC(=O)c1ccccc1NC(=O)c1ccc2c(=O)n3c(nc2c1)CCCCC3,-16%,i

# Compounds shown so far that contain fluorine, in the order listed:
SMILES,VACV Venus inh,Vaccinia mCherry
O=C(Cc1cccs1)Nc1ccccc1F,-3%,-11%
Cc1ccc(C(=O)CC2(O)C(=O)N(Cc3ccccc3F)c3ccccc32)cc1 (centres undefined),-12%,-14%
COc1ccc(NC(=O)C2(C)Cc3c(-c4cccc(C(F)(F)F)c4)ccnc3O2)cn1 (centres undefined),-14%,i
O=C(CCNC(=O)c1ccc(Br)cc1)NCc1ccccc1F,-5%,-6%
CCN(Cc1ccc(OC)c(F)c1)C(=O)c1oc2ccccc2c1COC,2%,-13%
Fc1ccc(C2NCCn3cccc32)cc1 (centres undefined),-6%,nt
Cc1nnc(CN(C)C(=O)c2cc(COc3ccc(F)cc3Cl)on2)o1,-3%,-6%
Cc1cccc(NS(=O)(=O)c2nnc(NC(=O)c3ccccc3F)s2)c1,-17%,i
CCSc1nnc(NC(NC(=O)c2ccco2)(C(F)(F)F)C(F)(F)F)s1,-13%,nt
O=c1oc2c3c4c(cc2c(C(F)(F)F)c1CCN1CCOCC1)CCCN4CCC3,11%,-4%
COc1ccc(CN(C)C(=O)c2ccc(OCC(=O)Nc3cccc(C(F)(F)F)c3)c(OC)c2)c(OC)c1,?,-3%
O=C1OCC2=C1C(c1ccc(Cl)cc1)CC(=O)N2c1ccc(F)cc1 (centres undefined),0%,-19%
CCCCCn1c(CCNC(=O)c2ccc(F)cc2)nc2ccccc21,-4%,-10%
Cn1c(=O)c(C(=O)COc2ccc(F)cc2Cl)c(N)n(Cc2ccccc2)c1=O,-3%,-11%
NC(=O)c1nsc(C(=O)N(Cc2cccnc2)C(C(=O)NC2CCCCC2)c2ccc(F)cc2)c1N (centres undefined),1%,-14%
O=C(Nc1cccc(Oc2c(F)c(F)c(F)c(F)c2F)c1)N1C[C@@H]2C[C@@H](C1)c1cccc(=O)n1C2,?,nt
CC1C(=O)Nc2ccccc2N1C(=O)c1ccc(F)cc1 (centres undefined),-17%,-15%
